Screening data from PubChem BioAssay.
PINK1 modulator – changes PINK1 expression; PINK1 immunofluorescence, high-content cytometry, 24 h; Potency, µM (doses to about 76.6 µM), for the others: top-dose activation (PINK1 increase), usual class: activators; hit rate 0.2% among 410,000; active = well fitted activation curve with a large enough effect; inconclusive = small, poorly fitted or top-dose-only effect; inactive = flat fitted curve, though single readings scatter; cell line not stated here;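 note: potency is the fitted concentration of half-maximal effect; % of control where 0% means no effect; nearly all actives have a fitted effect of over 65% in size; a mitochondrial uncoupler was the plate control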
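A stable cell line was treated with compounds at 5 concentrations for 24 hours, with CCCP as control. PINK1 levels and mitochondrial localization were measured by immunofluorescence with mitochondrial, cell and nuclear markers after fixation, read by laser-scanning cytometry.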
Six1-Eya2 inh – inhibitors of human Six1/Eya2 interaction | Q15475+O00167 | AlphaScreen GST-Six1/His-Eya2 binding, biochemical; active compounds read low; control for the full effect not named in the record | activity change, % (no concentration beside the values) | hit rate 0.56% among 360,000; in the data active = activity change below about -65%; inconclusive = about -30% to -65%; inactive = above about -30%; note: % is set by controls: 0 for no effect and ±100 for the full control effect
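GST-Six1 + His-Eya2 (5X stock: 250/500 nM); Tris pH 8.0, 300 mM NaCl, 0.05% BSA, 0.02% Tween 20; GSH donor/Ni acceptor beads; 1 h 37 °C dark; AlphaScreen readout.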
D2 potentiator – positive allosteric modulators of human D2 dopamine receptor; P14416; DiscoveRx D2 beta-arrestin cells, luminescence, 90 min; 100% = 57 uM dopamine signal; potentiation, % (test concentration not listed); hit rate 0.23% among 360,000; active = potentiation of 50% or more; inconclusive = 30% to 50%; inactive = 30% or less;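 note: compound concentration not given in the record; tested on top of an EC20 dose of dopamine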
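PathHunter beta-arrestin assay in DiscoveRx D2 cells. Compounds were added with an EC20 of dopamine (50 nM final) for 90 min at 37 deg C. Luminescence was read 1 h after detection reagent, with 57 uM dopamine as the EC100 control.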
TRPV1 potentiator – enhances activation of the human vanilloid receptor TRPV1 | AID 540277 | Q8NER1 | potentiation, % at 8.33 µM | TRPV1-expressing cells, Fluo-8 calcium influx, capsaicin EC20 potentiation; host cell line not named in the record; control for the full effect not named in the record | hit rate 0.02% among 320,000; active means potentiation above 80%; inconclusive means 30% to 80%; inactive means below 30%; note: 0% is about no effect
Target sequence (Q8NER1 whole entry, looked up): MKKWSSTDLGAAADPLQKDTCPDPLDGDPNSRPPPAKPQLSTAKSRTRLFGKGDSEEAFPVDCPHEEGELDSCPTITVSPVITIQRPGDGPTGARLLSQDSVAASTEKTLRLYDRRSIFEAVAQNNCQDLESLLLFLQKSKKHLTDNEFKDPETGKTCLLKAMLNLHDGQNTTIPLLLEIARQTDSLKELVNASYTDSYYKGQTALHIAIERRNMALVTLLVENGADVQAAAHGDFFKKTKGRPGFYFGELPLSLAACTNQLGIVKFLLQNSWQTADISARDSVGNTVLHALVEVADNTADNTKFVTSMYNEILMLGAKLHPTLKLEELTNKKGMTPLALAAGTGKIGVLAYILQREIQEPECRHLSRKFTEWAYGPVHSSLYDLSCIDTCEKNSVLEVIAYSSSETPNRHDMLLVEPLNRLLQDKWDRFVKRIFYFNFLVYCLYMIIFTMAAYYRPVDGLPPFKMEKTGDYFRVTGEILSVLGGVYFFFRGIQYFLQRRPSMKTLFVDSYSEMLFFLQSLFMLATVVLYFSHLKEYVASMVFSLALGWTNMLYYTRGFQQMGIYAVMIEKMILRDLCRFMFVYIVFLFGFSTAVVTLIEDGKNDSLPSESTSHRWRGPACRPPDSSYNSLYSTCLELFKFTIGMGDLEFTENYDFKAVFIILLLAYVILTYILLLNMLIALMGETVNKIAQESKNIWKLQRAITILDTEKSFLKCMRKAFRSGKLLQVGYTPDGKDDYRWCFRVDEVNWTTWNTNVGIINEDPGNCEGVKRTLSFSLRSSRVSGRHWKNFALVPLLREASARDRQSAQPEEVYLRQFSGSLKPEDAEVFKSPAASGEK
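TRPV1-expressing cells were cultured overnight at 35.5C and loaded with Fluo-8 calcium dye for 40 to 90 min at room temperature. After a 10 s baseline, compound was added and calcium influx was read kinetically for 3 min (ex 480/em 520 nm).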
D2 ag – human D2 receptor agonism in beta-arrestin assay; activation, % (concentration not given with the values); DiscoveRx PathHunter D2 beta-arrestin, luminescence, 90 min; 100% = 57 uM dopamine signal; hit rate 0.084% among 360,000; in the data active = activation above about 40%; inconclusive = about 15% to 40%; inactive = below about 15%; note: compound concentration not given in the record; the text of the record calls up to 30% inactive
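Agonist mode: compounds alone added to overnight-plated D2 PathHunter cells for 90 min at 37 C, with 57 uM final dopamine (EC100) defining full response. Beta-arrestin recruitment detected by chemiluminescent reagent, read after 1 h at ambient temperature.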
CtBP-E1A blk – blocks the CtBP interaction with E1A | AlphaScreen GST-E1A/His-CtBP binding, 1536-well; active compounds read low; control for the full effect not named in the record | activity change, % (no concentration beside the values) | hit rate 0.49% among 340,000; in the data active means activity change below about -65%; inconclusive means about -30% to -65%; inactive means above about -30%; note: % is set by controls: 0 for no effect and ±100 for the full control effect
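Homogeneous bead-based format: GST-tagged E1A captured on glutathione donor beads, His-tagged CtBP on nickel acceptor beads; compounds precede bead addition by 2 h at 37 °C.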
Sfp inh – Sfp phosphopantetheinyl transferase inhibition; Q9F4F7; Biochemical Sfp PPTase activity, qHTS; Potency, µM, inactives show max response, negative = inhibition, usual class: inhibitors; hit rate 3.5% among 310,000; active = well fitted inhibition curve with a large enough effect; inconclusive = small, poorly fitted or top-dose-only effect, or another doubt; inactive = no such curve, though single readings can be large or run the other way;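 note: the enzyme is Sfp with the accession as filed and its product quenches rhodamine fluorescence; potency is the fitted concentration of half-maximal effect; 0% = enzyme reaction without inhibitor and -100% = no enzyme wells; top concentration of the series not given in the record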
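Buffer: 50 mM Hepes-Na pH 7.6, 10 mM MgCl2, 0.01% Nonidet P-40, 0.01% BSA. Enzyme 15 nM, pre-exposed to compound 15 min; substrates then added and fluorescence change tracked over 30 min.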
The depositor's hits bear a star; u = inconclusive; x = no result given; [ ] = remark or other dose.

SMILES | PINK1 modulator | Six1-Eya2 inh | D2 potentiator | TRPV1 potentiator | D2 ag | CtBP-E1A blk | Sfp inh
Cn1c(=O)c2c(nc(Cl)n2Cc2ccncc2)n(C)c1=O | -3.5%[38.3 µM] | 3.6 | -3.2 | -8.2 | -0.4 | 3.3 | 5.1%
Cc1ccccc1S(=O)(=O)Oc1cccc2c(O)cccc12 | 8.5% | 0.2 | 1.0 | 12.1 | -0.5 | 3.5 | -18.0%
COc1ccc(CC(=O)NCc2cccc(Cl)c2)cc1S(=O)(=O)N1CCOCC1 | 0.2% | -3.3 | -4.9 | x | -1.5 | -2.4 | x
C=C(C)Cn1c(COc2ccccc2)nnc1SCC(=O)O | 1.1% | 8.6 | -15.0 | 11.2 | 1.8 | -3.7 | 25.5%
COc1ccc(/C=C2\CN(Cc3ccccc3)C/C(=C\c3ccc(OC)cc3)C2=O)cc1 | -1.6% | 1.9 | 2.1 | 8.1 | -0.6 | 2.2 | u
Cc1cc(C)c2nc3nc(C)c(C)cc3c(N)c2c1 | -3.0% | u | -12.5 | 4.2 | -2.1 | -24.8 | 1.9%
CCCCCC(=O)NC(=S)NC1C2CC3CC(C2)CC1C3 (stereo not given) | u | 10.6 | -15.9 | 5.1 | -6.4 | 7.4 | -20.9%
CCCCCCC(CC(=O)NCc1cccnc1)CC(=O)NCc1cccnc1 | 1.9% | 0.4 | 0.0 | -5.0 | -2.5 | 8.7 | 16.5%
Cc1ccccc1Nc1ncccc1C(=O)N1CCOCC1 | -1.9% | -2.0 | 7.1 | 8.3 | -2.4 | 4.7 | 2.7%
CCSc1ccccc1C(=O)NCCCn1ccnc1 | -1.2% | 3.8 | -22.1 | 6.0 | -1.2 | 1.1 | u
O=C(c1cc(C(=O)N2CCCC2)cc([N+](=O)[O-])c1)N1CCCC1 | -2.3% | 7.9 | -4.4 | 5.9 | 3.4 | 2.7 | 10.0%
N#Cc1cccc(S(=O)(=O)NCc2nnc3ccccn23)c1 | 2.2% | -0.1 | -0.7 | 1.5 | 4.8 | -2.1 | x
CCCN(C(=O)c1cc(Cl)nc2ccccc12)c1c(N)n(Cc2ccccc2)c(=O)[nH]c1=O | 12.0% | 2.8 | -2.0 | -7.8 | 1.6 | 9.9 | x
O=S(=O)(NC1c2cccc3cccc(c23)C1N1CCN(CCO)CC1)c1ccccc1 (stereo not given) | -2.4% | 0.0 | -51.3 | 5.8 | -2.9 | 4.8 | 7.4%
CCOC(=O)C(C)Sc1nc(-c2cccs2)ccc1C#N (stereo not given) | 7.4% | 41.6 | -0.8 | 2.5 | 0.4 | 12.2 | u
COc1ccc(C(CC(=O)Nc2ccccn2)N2Cc3ccccc3C2=O)cc1 (stereo not given) | -0.8% | -9.6 | -12.7 | -14.4 | 3.4 | 1.9 | 3.7%
O/N=C/c1ccc2ccccc2n1 | 2.1% | 4.9 | -6.8 | 2.8 | -0.7 | -0.9 | -9.8%
CCOC(=O)N1CCC(Nc2cc(C)nc3c(-c4ccccc4OC)c(C)nn23)CC1 | 2.6% | 2.6 | -6.1 | -34.1 | 0.4 | 0.0 | -0.2%
COc1ccc(C2=NN(C(=O)CSc3ncccn3)C(c3ccc(OC)cc3)C2)cc1 (stereo not given) | 1.2% | -10.4 | -21.4 | -0.3 | -1.5 | -5.1 | -17.8%
CCNC(=O)COC(=O)c1cc(=O)[nH]c2ccccc12 | 5.4%[38.3 µM] | 1.0 | 6.3 | -14.3 | -0.8 | -0.5 | 25.3%
O=C(c1nc2ccc(Cl)cn2c1CNCC[C@@H]1C[C@@H]2C=C[C@H]1C2)N1CCCCCCC1 | u | -1.0 | -15.0 | -4.4 | -4.9 | -0.7 | 2.8%
O=C(Cc1ccccc1)N1CCC2(CC1)NCCc1[nH]cnc12 | -0.9% | 0.9 | -3.2 | -2.1 | -7.6 | x | 18.1%
Cc1cc(=O)oc2cc(OCC(=O)NCC3CCC(C(=O)O)CC3)ccc12 (stereo not given) | 0.4% | 20.7 | 1.7 | 15.3 | 1.9 | 0.0 | 11.4%
COc1cc2c(cc1OC)C(CNC(=O)C=Cc1cc(OC)c(OC)c(OC)c1)C2 (stereo not given) | 2.5% | -23.2 | -0.7 | x | -1.8 | -4.4 | x
CCOC(=O)C(C(=O)OCC)c1c([N+](=O)[O-])c(=O)n2c3c(cccc13)CCC2 | 2.3% | -4.4 | 3.8 | 16.0 | -0.4 | -9.2 | 0.2%
O=C(CCN1C(=O)c2ccccc2C1=O)Nc1cccc(F)c1 | x | 4.3 | 5.9 | -1.9 | -0.2 | 14.0 | 33.2%[activator]
CCOC(=O)CSC1=C(C#N)C(c2ccccc2OCC)C(C(=O)OCC)C(=O)N1 (stereo not given) | 1.4% | -2.5 | 6.2 | -10.2 | -3.9 | 0.3 | -11.8%
O=C(c1ccc2c(c1)OCO2)N1CCN=C1SCc1ccccc1 | 1.9% | 9.0 | -6.8 | -17.8 | 1.1 | -0.8 | -1.5%
COc1ccc(-c2nc(C)ncc2-c2csc(C)n2)c(O)c1 | -0.6% | -4.8 | -13.2 | 0.6 | -1.7 | 2.2 | 4.4%
C=CCOc1ccc(CNc2nccs2)cc1OCC | 3.1% | 6.2 | 4.8 | -18.2 | -1.5 | 17.5 | -8.2%
C/C(=N/NC(=O)CNC(=O)COc1ccccc1)c1ccco1 | -0.2% | 1.4 | -9.3 | 0.6 | -1.6 | 9.8 | 17.1%
COc1ccc(-c2cc3ccccc3oc2=O)cc1 | -0.1% | 40.2 | -3.5 | x | -1.4 | 30.4 | x
CC1(C)CC(OC(=O)c2ccccc2)CC(C)(C)N1 | 1.0%[38.3 µM] | 0.3 | -4.9 | 8.4 | -1.5 | 0.6 | 15.6%
COc1ccc(CNC(=O)c2cnc(C)cn2)c(OC)c1 | -4.2%[38.3 µM] | -0.4 | -9.5 | 14.9 | -1.7 | 3.6 | 19.0%
CC1CCc2c(sc(NC(=O)CSc3nc4c(c(C(F)(F)F)n3)CCc3ccccc3-4)c2C(N)=O)C1 (stereo not given) | 0.9% | 0.2 | -17.3 | -5.0 | -2.1 | 1.9 | 4.8%
O=C(CCn1c(=O)oc2ccc(Cl)cc21)N1CCN(c2ccccc2)CC1 | -1.5% | -20.7 | -10.1 | -4.8 | -1.8 | -16.4 | 11.0%
O=C(COC(=O)/C=C/c1ccc(Cl)cc1Cl)Nc1cccc(S(=O)(=O)NC2=NCCC2)c1 | 1.1% | -18.0 | -5.6 | x | -2.7 | -17.2 | x
COc1ccc(-c2nc(SCC(=O)Nc3cccc(S(N)(=O)=O)c3)n[nH]2)cc1 | -2.8% | -5.5 | -67.7 | 15.0 | -0.8 | -2.4 | x
COc1ccc(C(=O)Nc2cc(C)on2)cc1[N+](=O)[O-] | 6.0% | -1.2 | -3.1 | 11.8 | 3.6 | 6.9 | -6.4%
Cc1ccn2c(NC(=O)c3ccccc3)c(-c3ccccc3)nc2c1 | -0.5% | -1.4 | -5.1 | 0.8 | -0.9 | -1.9 | 6.5%
O=C(c1ccc(Cl)cc1)C(CN1CCCC1)c1ccccc1 (stereo not given) | -2.3% | 1.6 | -61.5 | 9.6 | -5.2 | x | -15.5%
Cc1ccc(NC2c3ccccc3C(=O)N2c2cccnc2)cc1 (stereo not given) | 1.6% | -1.0 | -1.9 | -2.5 | 1.2 | -0.8 | 18.1%
O=C(NCc1ccc2c(c1)OCO2)c1cnc2ccccn2c1=O | -1.4%[38.3 µM] | 2.4 | -9.9 | -15.4 | -2.6 | 2.0 | 22.9%
O=C1CCN(Cc2ccccc2)C=C1c1cccc(O)c1 | -0.5% | -1.9 | x | x | -0.2 | -1.1 | x
CCOC(=O)C1=C(C)NC(C)=C(C(=O)OCC)C1c1ccc(O)cc1 | 1.0% | -2.9 | -3.7 | 4.7 | -2.2 | 8.7 | 4.2%
CCOC(=O)[C@]12CCC=C1N(CCC1=CCCCC1)C(=O)[C@H](CC(=O)N1CCC(c3ccccc3)CC1)C2 | 2.8% | 1.8 | x | x | x | -17.0 | x
O=C(Nc1c2c(nn1-c1ccccc1)CS(=O)(=O)C2)c1ccccc1Br | 2.8% | -3.4 | -1.6 | -2.8 | -2.2 | 6.6 | 9.9%
COc1ccc(N(CC(=O)Nc2ccc(C(C)C)cc2)S(=O)(=O)c2c(C)noc2C)cc1 | 3.5% | -2.7 | -2.8 | 19.4 | -1.0 | 2.9 | 23.6%
CC(C)[C@H](NC(=O)N1c2ccccc2NC(=O)[C@@H]1C(C)C)C(=O)N[C@@H](Cc1c[nH]c2ccccc12)C(=O)O | -0.6% | 4.7 | 8.2 | 13.3 | 4.7 | 7.2 | 22.2%
C/C(=N\NC(=O)CSc1nc(C)cc(C)n1)c1ccc2c(c1)OCCO2 | -0.2% | -1.1 | -7.9 | -8.7 | -18.1 | 10.2 | 9.6%
COc1ccc(C(=O)CSc2n[nH]c(C)n2)cc1[N+](=O)[O-] | -1.1% | -11.3 | 1.5 | -5.0 | -0.9 | 3.0 | 79.4µM*
COc1ccc(-c2cc3ccccc3s2)cc1[C@H]1[C@H]2C=CC[C@@H](C)[C@@H]2C(=O)N1Cc1ccccc1 | -1.4% | 3.0 | -4.5 | 15.8 | -2.6 | -2.6 | -1.4%
Cn1nc(C(F)(F)F)c(C#N)c1N1CCN(c2ccccc2)CC1 | -1.8% | 5.2 | -0.4 | 3.3 | -3.8 | 6.0 | 9.1%
COc1cc(C(=S)N2CCC(C(N)=O)CC2)ccc1O | -0.7% | 0.5 | -2.2 | 18.4 | -2.2 | 2.8 | 20µM*
O=C(COC(=O)C1CCCN1C(=O)c1cccs1)c1ccccc1 (stereo not given) | -1.2% | 21.4 | -2.7 | -1.8 | -3.1 | 0.0 | 8.1%
CSc1ccccc1NC(=O)CN1c2ccccc2CC1C (stereo not given) | -0.7% | -8.2 | -9.3 | -5.0 | -2.7 | 0.0 | 23.6%
O=C(c1cccc(Br)c1)c1coc2ccc(O)cc12 | 3.7% | -0.2 | 3.1 | 8.0 | -1.2 | x | x
O=C(CSc1cccc2cccnc12)Nc1ccc(S(=O)(=O)N2CCOCC2)cc1 | 14.9% | -88.2* | -6.4 | 15.0 | -4.6 | -92.6* | -28.2%
CCN(CC)S(=O)(=O)c1ccc(S(=O)(=O)N2CCCC(C(=O)NC3CC3)C2)cc1 (stereo not given) | 3.6% | -0.6 | -2.4 | -5.8 | -0.2 | 5.4 | 11.0%
